# Source: PubChem BioAssay (several laboratories)
# UCH37 DUB inh: inhibitors of human deubiquitinating enzyme UCH37 | Q9Y5K5 | inhibition, % (no concentration beside the values) | purified proteasome/UCH37, Ub-AMC cleavage fluorescence | hit rate 0.33% among 330,000;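 active = mean of two replicates above 20%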;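 note: 0% = compound-free wells with enzyme and 100% = wells lacking proteasome; stock transfer was 100 nL into about 20 µL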
# Target sequence (Q9Y5K5 whole entry, looked up): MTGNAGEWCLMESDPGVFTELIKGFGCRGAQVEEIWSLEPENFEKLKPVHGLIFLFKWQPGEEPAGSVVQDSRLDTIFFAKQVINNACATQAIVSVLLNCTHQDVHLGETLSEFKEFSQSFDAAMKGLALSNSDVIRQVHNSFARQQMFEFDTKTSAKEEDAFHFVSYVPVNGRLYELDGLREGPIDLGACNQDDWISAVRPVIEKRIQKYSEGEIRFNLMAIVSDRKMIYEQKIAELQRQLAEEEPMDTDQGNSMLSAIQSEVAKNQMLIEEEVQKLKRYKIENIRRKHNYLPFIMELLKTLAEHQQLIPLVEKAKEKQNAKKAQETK
#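 System: Proteasome-associated human UCH37 deubiquitinase; Input: 0.15 nM proteasome in added enzyme buffer; Also added: Ub-AMC substrate from 1 µM stock; Incubation: 30 min compound-proteasome preincubation then 25 min substrate reaction, room temperature; Detection: fluorescence, ex 355 nm, em 460 nm; Read-out: % inhibition of Ub-AMC cleavage fluorescence; Benchmarks: no-proteasome and no-compound wells.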
# B2AR ag: agonists of human beta-2 adrenergic receptor inducing internalization | P07550 | Am2.2-beta2AR cells, FAP receptor internalization, flow cytometry; reference of the scale not given here | response, % (concentration not given with the values) | hit rate 0.43% among 340,000 | AID 504454;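 active = response above a set limit, near 3 SD of response in nonfluorescent compounds, cut at about 42% in these data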;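 note: stock transfer was 100 nL into about 11 µL; a reference agonist was the positive control; negative values mostly stem from fluorescent compounds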
# Target sequence (P07550 whole entry, looked up): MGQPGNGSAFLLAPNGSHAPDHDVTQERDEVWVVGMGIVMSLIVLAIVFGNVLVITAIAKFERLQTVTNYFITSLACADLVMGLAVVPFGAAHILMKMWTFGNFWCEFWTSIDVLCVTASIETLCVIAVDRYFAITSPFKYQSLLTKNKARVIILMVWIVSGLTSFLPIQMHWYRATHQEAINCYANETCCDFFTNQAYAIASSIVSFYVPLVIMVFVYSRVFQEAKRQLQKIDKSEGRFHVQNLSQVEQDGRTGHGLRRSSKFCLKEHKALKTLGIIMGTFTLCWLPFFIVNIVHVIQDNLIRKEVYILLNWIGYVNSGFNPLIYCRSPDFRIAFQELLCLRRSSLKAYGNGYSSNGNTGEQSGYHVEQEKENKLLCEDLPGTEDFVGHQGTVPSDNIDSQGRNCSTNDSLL
# rRNA inh HTS: selective bacterial rRNA inhibition in E. coli; GFP signal change (wild-type ribosome), % (test concentration not listed); E. coli WT GFP vs humanized-ribosome RFP mutants, fluorescence, 24 h; hits give low values; DMSO median 0, no signal -100; AID 720706; hit rate 1.6% among 350,000;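 active = significant combined selectivity score with lowered wild-type GFP, culture density cut under 30%, mutant RFP and density less affected; inactive = any of these conditions unmet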; note: one replicate is shown; some compounds called inactive have numbers as strong as hits
# ALR inh: human ALR oxidase inhibition via reduced H2O2; inhibition, % (test concentration not listed); P55789; purified ALR, DTT oxidation, H2O2 HRP-luminol luminescence; hit rate 3.8% among 290,000; AID 485317;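 active = mean and each replicate at 75% or more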;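 note: stock transfer was 7.5 nL into about 7.5 µL; 0% = neutral wells and 100% = wells with inactivated enzyme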
# Target sequence (P55789 whole entry, looked up): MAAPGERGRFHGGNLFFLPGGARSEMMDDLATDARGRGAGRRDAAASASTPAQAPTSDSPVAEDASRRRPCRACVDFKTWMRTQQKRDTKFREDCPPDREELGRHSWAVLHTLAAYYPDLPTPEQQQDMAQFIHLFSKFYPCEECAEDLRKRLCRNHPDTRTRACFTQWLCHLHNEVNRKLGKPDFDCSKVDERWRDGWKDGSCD
# FGF22 binding: shifts melting point of recombinant human FGF22 | Q9HCT0 | recombinant FGF22 thermal shift, SYPRO orange fluorescence; percent of sucrose octasulfate shift, DMSO zero | calls only at 9.99 µM | hit rate 1.5% among 340,000 | AID 651658;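 active = melting point raised past a set limit in the mean and every replicate; three in four hits are not shown here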
# E coli growth: blocks Escherichia coli growth; hit rate 0.21% among 330,000; OD600 absorbance (concentration not given with the values); OD600, 23 h; hits give low values; AID 1053175;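 active = OD600 absorbance below the run mean of sample wells minus 3.6 SD, in any replicate, cut at about 0.56 in these data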;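 note: stock transfer was 300 nL into about 60 µL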
# HNF4A DNA FP: change in binding of human HNF4 alpha to DNA. HNF4a-FITC DNA binding, fluorescence polarization, 1 h. hit rate 0.3% among 360,000. activity change, % at 10 µM; in the data active = activity change above about 30%, passing the limit was not always enough;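 note: controls were the assay level and a saturating level of protein; the project sought stronger binding though the title names inhibitors; some compounds called inactive have numbers as strong as hits; positive values seem to mean higher polarization but the record does not say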
# rRNA inh HTS OD600: further read-out of rRNA inh HTS, marked with its call; OD600 change, %; measured here: OD600 growth;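 optical density of the mix in the first replicate; 0 = DMSO median and -100 = no signal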
# rRNA inh HTS RFP: also measured in rRNA inh HTS; calls as there; RFP signal change, %; measured here: RFP humanized mutant strains;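 first replicate; 0 = DMSO median and -100 = no signal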
# Starred values were filed as active, the others as inactive; i = inactive; . = not tested or not shown; & = joins results of further samples. Only part of the results is shown; rates above refer to the full screens.
# The opening 3 entries as a preview:
SMILES,UCH37 DUB inh,B2AR ag,rRNA inh HTS,rRNA inh HTS OD600,rRNA inh HTS RFP,ALR inh,FGF22 binding,E coli growth,HNF4A DNA FP
COc1ccc(C(=O)N2CCN(c3cnn(-c4ccccc4)c(=O)c3Cl)CC2)cc1,6.9,1.4,4.3,-0.5,0.0,-8.2,i,0.718,-32.1
O=C(OCc1ccccc1)N1CCC2CC1c1cc(-c3ccc(F)cc3)ccc12 (stereo unspecified),4.7,-8.4,0.8,12.0,2.7,.,i,0.705,-0.3
COc1ccc(Cl)cc1C(=O)Nc1ccc2c(c1)OCO2,0.2,-10.7,.,.,.,1.6,.,0.682,-2.2

# Main list, repeating the preview:
SMILES,UCH37 DUB inh,B2AR ag,rRNA inh HTS,rRNA inh HTS OD600,rRNA inh HTS RFP,ALR inh,FGF22 binding,E coli growth,HNF4A DNA FP
COc1ccc(C(=O)N2CCN(c3cnn(-c4ccccc4)c(=O)c3Cl)CC2)cc1,6.9,1.4,4.3,-0.5,0.0,-8.2,i,0.718,-32.1
O=C(OCc1ccccc1)N1CCC2CC1c1cc(-c3ccc(F)cc3)ccc12 (stereo unspecified),4.7,-8.4,0.8,12.0,2.7,.,i,0.705,-0.3
COc1ccc(Cl)cc1C(=O)Nc1ccc2c(c1)OCO2,0.2,-10.7,.,.,.,1.6,.,0.682,-2.2
C[C@H](CO)N1C[C@H](C)[C@@H](CN(C)C(=O)C2CCOCC2)Oc2ncc(Br)cc2C1=O,.,.,11.2&12.7,6.5&8.1,-1.3&-1.8,.,i,.,-1.5
CCCCCCOC(=O)C1=C(C)NC(=O)NC1c1ccc(O)cc1 (stereo unspecified),1.6,1.4,.,.,.,-1.8,.,0.748,-3.2
CN1CCN(C(=O)C2CCCN(c3ncnc4c3nc3n4CCCCC3)C2)CC1 (stereo unspecified),4.7,-3.2,4.6,-10.5,-1.7,0.7,i,0.671,-1.5
COc1ccc(Nc2ncc(C(=O)N3CCC(C(N)=O)CC3)c3ccccc23)cc1,8.3,-1.6,.,.,.,2.0,.,0.7,-4.4
CCOC(=O)/C(C#N)=C/c1cn(CCC(=O)O)nc1-c1cccc(Cl)c1,7.1,10.4,4.1,4.2,10.4,.,i,0.68,-0.3
COC(=O)c1ccc(/C=N\N2CCN(c3ccccc3)CC2)cc1,.,6.3,7.1,9.4,-1.5,-0.7,i,.,3.2
CCC1CCCCN1c1nc(-c2cccc(OC)c2O)nc2ccccc12 (stereo unspecified),3.3,9.0,.,.,.,0.8,.,0.771,-1.7
COc1ccc(CCC(=O)Nc2cccc(S(=O)(=O)N3CCOCC3)c2)cc1OC,3.5,9.8,-3.4,-1.5,-0.8,.,i,0.7,1.2
Cc1ccc2c(Cl)cc(Cl)c(OCC(=O)NC(=O)NCc3ccco3)c2n1,3.5,8.2,.,.,.,4.2,.,0.702,2.2
C/C(=N\NC(=O)CC1N=C(Cc2ccccc2)NNC1=O)c1ccc(Br)cc1 (stereo unspecified),.,-4.9,18.4,3.9,4.4,0.6,i,.,2.9
O=C(NCC1(c2ccccc2)CCCC1)C(=O)N1CCOCC1,4.4,-7.2,.,.,.,-9.6,.,0.752,0.3
CCC(C)Cn1c(C(C)C)nc2ccccc21 (stereo unspecified),3.0,4.5,15.1,13.6,3.0,-0.7,i,0.709,-1.0
C/C(=N\N=C\c1cccc(F)c1)c1nnn(-c2nonc2N)c1C,.,1.8,5.7,7.6,1.7,0.9,i,.,-0.2
O=C(CCNC(=O)c1ccccc1Cl)NCCc1ccc(C(F)(F)F)cc1,0.8,-1.0,4.5,14.5,-0.6,-0.6,i,0.716,-0.2
CCCCOC(=O)n1c(SCC(=O)N(C)C)nc2ccccc21,1.7,-32.0,.,.,.,-4.7,.,0.668,-2.3
C=CCn1c(O)c(N=NC(=O)OC(C)(C)C)c2ccccc21,5.3,-10.9,.,.,.,-0.2,.,0.653,0.2
COC(=O)/C(=C/N(C)C)C(=O)N1CCN(c2ccc(Cl)c(Cl)c2)CC1,0.1,0.6,-30.9,-38.5,-9.7,9.6,i,0.689,-4.2
c1ccc(Nc2c3c(nc4ncnn24)CCC3)cc1,0.5,-14.8,.,.,.,-0.1,.,0.695,28.7
O=C(NCCN1CCOCC1)c1ccc([N+](=O)[O-])cc1[N+](=O)[O-],0.8,4.5,.,.,.,-20.5,.,0.729,-1.4
CCOC(=O)C1CCCN(C(=O)c2ccc(OC)cc2)CC1 (stereo unspecified),.,.,12.3,14.5,0.3,.,i,.,1.7
COCCOC(=O)c1c(C)oc2ccc(NS(=O)(=O)c3ccccc3)cc12,3.4,-5.2,-25.8,-29.2,0.9,41.7,i,0.703,-2.2
O=S(=O)(NCC1CCCN(Cc2ccccc2O)C1)c1cccc2cccnc12 (stereo unspecified),6.5,3.6,-0.9,-22.8,-1.9,13.1,i,0.725,0.4
O=C1NNC(c2ccccc2)=N/C1=C\c1ccc(Cl)cc1,21.1*,5.0,4.0,2.4,-2.4,32.3,i,0.703,4.3
Cc1cc(S(=O)(=O)N2CCc3ccccc3C2)ccc1F,2.6,9.9,9.7,12.3,1.6,3.1,i,0.662,-0.5
COc1cc(CNc2ccc(N3CCN(C(C)=O)CC3)cc2)ccc1OCc1ccccc1,-0.3,-1.9,-4.4,8.7,7.7,99.2*,i,0.691,0.1
S=C(NCCc1ccccc1)N1CCC2CC1c1c(Cl)cccc12 (stereo unspecified),.,.,-10.9,-30.0,-6.9,.,i,.,-1.5
Cc1nc2c(sc(=S)n2Cc2ccco2)c(=O)n1CC(=O)Nc1ccc(F)cc1,4.9,-0.1,5.8,12.4,-1.1,0.9,i,0.753,-1.9
CCNC(=O)c1c(NC(C)=O)sc2c1CCCC2,2.7,-0.5,.,.,.,5.4,.,0.68,-1.5
O=C(C1CCCN(S(=O)(=O)c2cccs2)C1)N1CCC(N2CCCCC2)CC1 (stereo unspecified),-0.2,-0.3,0.9,1.4,8.3,53.1,i,0.771,3.4
CCOc1ccc(-n2c(=O)c3sccc3n(Cc3ccc(C)cc3)c2=O)cc1,0.0,-2.9,9.7,1.5,-3.1,.,i,0.712,-0.2
CCN(c1ccc(NC(=O)COC(=O)/C=C/c2cccs2)cc1)C(C)C,2.6,-4.8,9.9,6.1,-0.2,-3.7,i,0.678,-2.3
CCOc1ccc(CN(C)c2nc(-c3cccnc3)nc3ccccc23)cc1OC,4.8,-2.6,-47.2,-46.9,1.9,2.2,i,0.684,3.2
CC(C)Cn1c(N)c(-c2nc(C(C)C)c(C(=O)c3ccccc3F)s2)c(=O)n(C)c1=O,2.2,.,.,.,.,9.2,.,0.667,.
CCOC(=O)n1c(=O)n(Cc2c(Cl)cccc2Cl)c2ccccc21,-0.2,3.0,.,.,.,-0.6,.,0.748,0.8
O=C(NCCOc1ccccc1)c1ccccc1[N+](=O)[O-],-0.8,-12.3,5.7,4.5,-8.4,-14.6,i,0.615,-0.7
CC1CCCN(C(=O)c2cn(-c3ccccc3)nc2-c2cccnc2)C1 (stereo unspecified),-0.7,-22.6,-2.8,-8.7,0.6,5.6,i,0.69,1.1
CCOc1ccc2oc(C(=O)OCC(=O)NCC3CCCO3)c(C)c2c1 (stereo unspecified),-63.5,-5.9,1.5,4.4,2.0,.,i,0.69,1.2
CCCNC(=O)C1(C)CCN(CCOc2ccc(Cl)cc2)C1 (stereo unspecified),.,.,9.0,8.9,-1.5,.,i,.,-2.0
CSc1nnc(-c2ccco2)n1-c1ccccc1,4.6,-9.7,.,.,.,1.1,.,0.794,1.3
O=c1c2c(-c3ccccc3)csc2nc2n1CCC2,4.4,-31.8,.,.,.,-2.1,.,0.697,-4.8
CC1(C)NC(=O)N(CCSc2ccc(Cl)cc2)C1=O,0.4,2.9,.,.,.,2.3,.,0.718,0.6
COc1cccc(-c2c(C(=O)N/N=C/C3CC=CCC3)nnn2-c2nonc2N)c1 (stereo unspecified),.,1.3,15.6,17.0,2.7,-7.0,i,.,2.2
COc1ccc(C2CC(c3cccs3)=NN2C(=O)CCCC(=O)O)cc1OC (stereo unspecified),.,.,8.1,2.4,0.3,.,i,.,3.2
COc1ccc(NC(=O)CSc2nc3ccsc3c(=O)n2CCC(=O)O)c(OC)c1,4.4,3.7,-3.6,-1.7,0.1,-5.2,i,0.657,4.5
Cc1ccc(Cn2c(=N)c(C(=O)NCCN3CCOCC3)cc3c(=O)n4ccccc4nc32)cc1,-325.0,5.2,1.2,0.1,-1.9,0.1,i,0.702,1.8
COc1ccccc1OCC(=O)Nc1ccc(S(=O)(=O)Nc2onc(C)c2C)cc1,0.6,-0.5,-3.4,-9.4,-3.0,2.9,i,0.663,-2.2
Oc1ccc(C=Nc2ccc(N3CCOCC3)cc2)c(O)c1,5.4,4.7,.,.,.,98.6*,.,0.713,2.2
O=C(Nc1ccc(Br)cc1Cl)c1ccc(OCC2CCCO2)cc1 (stereo unspecified),1.3,2.1,-3.0,0.0,-1.2,-0.3,i,0.681,2.3
CCOC(=O)c1[nH]c(C)c(/C(O)=C2\C(=O)C(=O)N(CCN(C)C)C2c2ccc(C)o2)c1C (stereo unspecified),10.1,-8.9,.,.,.,-9.4,.,0.691,1.1
COc1ccccc1N=C(C)C1=C(O)CSC1=O,4.6,-1.0,.,.,.,-11.9,.,0.675,-4.1
CC(C(=O)NCc1ccco1)n1cc([N+](=O)[O-])cn1 (stereo unspecified),-0.6,0.0,17.4,16.6,2.4,2.7,i,0.741,1.7
Cc1cccc(C)c1NC(=O)CNC(=O)C1CCCN(C(=O)c2ccc(Cl)cc2)C1 (stereo unspecified),1.1,3.0,1.5,-6.9,2.9,-1.2,i,0.706,1.0
NC(=O)c1ccsc1NC(=O)CCS(=O)(=O)c1ccccc1,1.4,-3.7,8.2,10.7,-5.8,20.9,i,0.679,1.1
CCOC(=O)C(=C1Nc2ccccc2N1)n1c(-c2cccnc2)nc2ccccc21,.,.,2.1,9.4,-0.6,.,i,.,-3.1
CCOC(=O)[C@H]1[C@H]2COc3cc(OC)ccc3[C@@H]2N2C(=O)c3cc(C)ccc3NC(=O)[C@@]12C,0.4,10.2,-10.6,-16.9,-11.1,.,i,.,0.3
N=C(N)n1c(N)nc2ccccc2c1=O,-84.2,-7.5,5.4,11.8,-2.6,38.5,i,0.605,-3.0
Cc1ccc(C)c(N(C)S(=O)(=O)c2ccc3c(c2)oc(=O)n3C)c1,1.9,-0.9,9.3,8.4,7.1,0.9,i,0.703,-5.3
# Next part:
SMILES,UCH37 DUB inh,B2AR ag,rRNA inh HTS,rRNA inh HTS OD600,rRNA inh HTS RFP,ALR inh,FGF22 binding,E coli growth,HNF4A DNA FP
Cc1nnc(SCC(=O)NC2CCC(C)CC2)s1 (stereo unspecified),.,9.5,11.6,4.6,0.0,5.7,.,.,1.0
Cc1nc2ccccc2c(=O)n1-c1cccc(NS(=O)(=O)c2ccccc2)c1,1.6,3.8,8.5,-1.7,2.1,-9.3,i,0.699,0.4
CC1(C)CC2(CC(c3ccccc3)Oc3cc(O)ccc32)NC(=O)N1 (stereo unspecified),3.6,.,-0.3,-1.1,1.1,-20.2,i,0.71,.
Cc1ccc(OCCn2cncn2)c([N+](=O)[O-])c1,2.4,-1.2,14.0,3.7,-3.1,-1.5,i,0.661,2.7

# Fetched by compound from the list above (two):
SMILES,UCH37 DUB inh,B2AR ag,rRNA inh HTS,rRNA inh HTS OD600,rRNA inh HTS RFP,ALR inh,FGF22 binding,E coli growth,HNF4A DNA FP
COc1ccc(C(=O)N2CCN(c3cnn(-c4ccccc4)c(=O)c3Cl)CC2)cc1,6.9,1.4,4.3,-0.5,0.0,-8.2,i,0.718,-32.1
COc1cc(CNc2ccc(N3CCN(C(C)=O)CC3)cc2)ccc1OCc1ccccc1,-0.3,-1.9,-4.4,8.7,7.7,99.2*,i,0.691,0.1
